Screening data from PubChem.
Sfp inh: qHTS Assay for Inhibitors of Bacillus subtilis Sfp phosphopantetheinyl transferase (PPTase). 310,000 tested, 3.5% active. 4'-phosphopantetheinyl transferase ffp (Bacillus subtilis), Q9F4F7. Potency, µM, inactives show max response, negative = inhibition, actives largely listed as inhibitors. Biochemical Sfp PPTase activity, qHTS; active means well fitted inhibition curve with a large enough effect; inconclusive means small, poorly fitted or top-dose-only effect, or another doubt; inactive means no such curve, though single readings can be large or run the other way;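 further: the enzyme is Sfp with the accession as filed and its product quenches rhodamine fluorescence; potency means the concentration at half of the fitted maximal effect; 0% = enzyme reaction without inhibitor and -100% = no enzyme wells; top concentration of the series not given in the record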
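Buffer: 50 mM Hepes-Na pH 7.6, 10 mM MgCl2, 0.01% Nonidet P-40, 0.01% BSA. Enzyme 15 nM, pre-exposed to compound 15 min; substrates then added and fluorescence change tracked over 30 min.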
TRPV1 potentiator: HTS Assay for Compounds that Act as Potentiators of the Vanilloid Receptor 1. Transient receptor potential cation channel subfamily V member 1 (Homo sapiens), Q8NER1. TRPV1-expressing cells, Fluo-8 calcium influx, capsaicin EC20 potentiation; host cell line not named in the record; control for the full effect not named in the record. potentiation, % at 8.33 µM. 320,000 tested, 0.02% active. AID 540277, 2011; active means potentiation above 80%; inconclusive means 30% to 80%; inactive means below 30%; further: 0% is about no effect
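Cells expressing TRPV1 were dye-loaded with Fluo-8 and read kinetically: 10 s baseline, 3 min after compound (agonist portion), then 2 min after EC20 capsaicin (allosteric enhancer portion). Calcium-bound dye fluorescence at 480/520 nm.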
D2 ag: Beta-Arrestin HTS for Positive Allosteric Modulators of the Human D2 Dopamine Receptor: Agonists; D(2) dopamine receptor (Homo sapiens), P14416; DiscoveRx PathHunter D2 beta-arrestin, luminescence, 90 min; 100% = 57 uM dopamine signal; activation, % (no concentration beside the values); 360,000 tested, 0.084% active; AID 624465, 2012; in the data active = activation above about 40%; inconclusive = about 15% to 40%; inactive = below about 15%; further: compound concentration not given in the record; the text of the record calls up to 30% inactive
Target sequence (P14416 whole entry, looked up): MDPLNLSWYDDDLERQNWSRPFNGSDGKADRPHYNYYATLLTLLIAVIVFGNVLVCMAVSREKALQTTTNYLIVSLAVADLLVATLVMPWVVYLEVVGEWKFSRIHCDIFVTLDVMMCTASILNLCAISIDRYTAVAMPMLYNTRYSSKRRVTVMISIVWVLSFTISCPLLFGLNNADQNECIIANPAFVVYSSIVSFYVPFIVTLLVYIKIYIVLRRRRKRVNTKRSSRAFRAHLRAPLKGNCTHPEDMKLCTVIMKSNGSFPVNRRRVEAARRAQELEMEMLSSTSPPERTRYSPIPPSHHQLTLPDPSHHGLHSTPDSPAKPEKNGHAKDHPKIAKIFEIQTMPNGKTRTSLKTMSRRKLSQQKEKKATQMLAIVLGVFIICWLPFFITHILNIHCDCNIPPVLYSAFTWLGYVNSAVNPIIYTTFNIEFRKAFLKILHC
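Agonist mode: compounds alone added to overnight-plated D2 PathHunter cells for 90 min at 37 C, with 57 uM final dopamine (EC100) defining full response. Beta-arrestin recruitment detected by chemiluminescent reagent, read after 1 h at ambient temperature.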
D2 PAM: Beta-Arrestin HTS for Positive Allosteric Modulators of the Human D2 Dopamine Receptor: Potentiators; D(2) dopamine receptor (Homo sapiens), P14416; DiscoveRx D2 beta-arrestin cells, luminescence, 90 min; 100% = 57 uM dopamine signal; potentiation, % (concentration not given with the values); 360,000 tested, 0.23% active; AID 624464, 2012; active = potentiation of 50% or more; inconclusive = 30% to 50%; inactive = 30% or less;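 further: compound concentration not given in the record; tested on top of an EC20 dose of dopamine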
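D2 cells co-treated with compound plus 50 nM dopamine (EC20) for 90 min at 37 deg C to detect potentiation. Beta-arrestin recruitment was read as enzyme-fragment luminescence after 1 h at ambient temperature. Full response was set by 57 uM dopamine.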
Six1-Eya2 inh: qHTS Assay for Inhibitors of the Six1/Eya2 Interaction | Homeobox protein SIX1 (Homo sapiens) + Protein phosphatase EYA2 (Homo sapiens), … | AlphaScreen GST-Six1/His-Eya2 binding, biochemical; active compounds read low; control for the full effect not named in the record | activity change, % (test concentration not listed) | 360,000 tested, 0.56% active | AID 651725, 2012; in the data active = activity change below about -65%; inconclusive = about -30% to -65%; inactive = above about -30%; further: on the % scale 0 is the no-effect control and ±100 the full control effect
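Homogeneous AlphaScreen proximity assay pairing GST-Six1 with His-tagged Eya2 (added as 5X mix: 250 nM and 500 nM) in 50 mM Tris pH 8.0, 300 mM NaCl, 1 mM TCEP. Glutathione donor and nickel acceptor beads; 1 h, 37 °C, dark.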
CtBP-E1A inh: qHTS Assay for Inhibitors of the CtBP/E1A Interaction; activity change, % (no concentration beside the values); CtBP / adenovirus E1A interaction (AlphaScreen); 340,000 tested, 0.49% active; AlphaScreen GST-E1A/His-CtBP binding, 1536-well; active compounds read low; control for the full effect not named in the record; AID 651724, 2012; in the data active means activity change below about -65%; inconclusive means about -30% to -65%; inactive means above about -30%; further: on the % scale 0 is the no-effect control and ±100 the full control effect
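In 5 uL wells, 23 nL compound meets equimolar GST-E1A and His-CtBP (5X stock 125 nM each) for 2 h, 37 °C. Beads (5X, 50 ug/mL) then 1 h, 37 °C, dark.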
PINK1 modulator: A Quantitative High throughput Screen to Identify Chemical Modulators of PINK1 Expression; PINK1 immunofluorescence, high-content cytometry, 24 h; Potency, µM (doses to about 76.6 µM), inactives show at the highest dose activation (PINK1 increase), usual class: activators; 410,000 tested, 0.2% active; AID 624263, 2012; active = well fitted activation curve with a large enough effect; inconclusive = small, poorly fitted or top-dose-only effect; inactive = flat fitted curve, though single readings scatter; cell line not stated here;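 further: potency means the concentration at half of the fitted maximal effect; % of control where 0% means no effect; nearly all actives have a fitted effect of over 65% in size; a mitochondrial uncoupler was the plate control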
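Stable cell line, 250 cells/well, 12 h attachment; compounds pinned at 5 concentrations, 24 h; CCCP control. Fixed with nuclear dye, primary antibodies 12 h at 10 degrees C, secondary plus cell stain; laser-scanning cytometer read.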
* hit, by the source's call; ? = inconclusive; / = not tested or not shown; & = joins results of further samples; [ ] = another dose, or the depositor's remark.

item | Structure | Sfp inh | TRPV1 potentiator | D2 ag | D2 PAM | Six1-Eya2 inh | CtBP-E1A inh | PINK1 modulator
1 | CCC1=C(OC(=O)N(CC)CC)N2C(=O)OC(=NCCc3c[nH]c4ccccc34)[C@]2(C)[C@H]2C1=CC[C@H]1C(=O)N(CC)C(=O)[C@H]12 | 18%&12% | -20 | 2.8 | -1 | -11 | -3 | 2.8%
2 | CNc1nc(NC)nc(-n2c(C(F)(F)F)nc3ccccc32)n1 | 11% | 10 | -5.4 | -9 | -22 | 0 | -0.7%
3 | Cc1ccc(C(=O)NCCN2C3=NC[C@H](Cc4ccc(O)cc4)N3C[C@H]2Cc2ccc(O)cc2)cc1Br | -25% | 1 | -0.9 | -20 | -12 | -6 | 0.7%
4 | Cc1oc2ccc(O)cc2c1C(=O)c1ccc(Br)cc1 | / | / | 0.5 | -2 | -9 | 1 | 2.8%
5 | Cc1ccccc1NC(=O)NNC(=O)CCc1ccccc1 | 6% | -14 | -4.0 | -13 | 0 | 1 | 0.9%
6 | COc1ccc(Cl)cc1S(=O)(=O)NCc1ccncc1 | 11% | -3 | -1.2 | -6 | 8 | 5 | -1.0%
7 | Cc1ccc(C)c(S(=O)(=O)Nc2ccc(C(=O)N3CC(C)OC(C)C3)cc2)c1 (stereo not given) | / | -4 | -0.4 | -2 | 6 | 4 | 2.2%
8 | CCOc1ccccc1-c1nc(CN2CCCN(C(=O)c3ccco3)CC2)c(C)o1 | 0% | 0 | -6.4 | -51 | -7 | 10 | 1.4%
9 | O=C(Cc1ccc(Br)cc1)N/N=C/c1cccnc1 | 10% | 0 | -3.3 | -17 | 1 | 6 | 0.0%
10 | CCOC(=O)c1ccc(NC(=O)N2CCN(C(=O)C3CCCO3)CC2)cc1 (stereo not given) | 2% | 2 | -3.8 | 0 | 11 | 3 | 1.3%
11 | Cc1ccc2c(c1)c1c(n2CC(O)Cn2c(C)nc3ccccc32)/C(=N\O)CCC1 (stereo not given) | 1% | 17 | -4.1 | -7 | -18 | -8 | 9.5%
12 | Cc1cccn2c(=O)c(C=O)c(N3CCN(c4ccc(F)cc4)CC3)nc12 | 4% | -7 | -2.1 | 0 | -1 | 1 | 2.0%
13 | COc1cccc(OCCOc2ccccc2[N+](=O)[O-])c1 | / | / | -2.7 | -20 | 0 | 10 | 2.6%
14 | Cc1nn(C)c(C(=O)Nc2ccn(C34CC5CC(CC(C5)C3)C4)n2)c1[N+](=O)[O-] | -10% | -11 | 0.9 | -1 | -12 | -6 | 2.1%
15 | NC(=O)c1ccsc1NC(=O)CS(=O)(=O)c1ccc(F)cc1 | / | -7 | -3.0 | -4 | 4 | 4 | 1.1%
16 | Cc1cccc(C)c1NC(=O)C1CC2CCC1C2 (stereo not given) | / | / | -1.2 | -1 | 12 | -1 | 0.5%
17 | CCOC(=O)C1CCN(C(=O)c2ccccc2NS(=O)(=O)c2ccc(C)cc2)CC1 | 2% | 0 | -6.4 | -20 | 2 | 15 | -2.3%
18 | COc1ccc([C@@H]2CC=C(C(=O)O)[C@H](c3ccc(Br)cc3)N2S(=O)(=O)c2ccccc2C)cc1 | / | / | -1.1 | / | 0 | 7 | -0.9%
19 | Cc1csc(NC(=O)c2cnc3ccccc3n2)n1 | -15% | -8 | -1.9 | -2 | 1 | -8 | 1.0%
20 | COc1ccc(/C=N\NC(=S)SCN2C(=O)C3CCC(C)(C2=O)C3(C)C)cc1 (stereo not given) | / | / | 0.7 | ? | -9 | -13 | 0.8%
21 | O=C(NCCc1ccccc1)c1ccc(NC(=O)C2CC2)cc1 | / | / | 0.9 | 3 | 4 | 9 | -0.3%
22 | COc1cccc(/C=C/C(=O)NCc2ccc(S(N)(=O)=O)cc2)c1 | 17% | 3 | -3.7 | -6 | -2 | 3 | 0.1%
23 | COc1ccc(C(=O)NC2CCCN(Cc3ccccc3F)C2)c(OC)c1OC (stereo not given) | 18% | -9 | -1.2 | -2 | -6 | -3 | 1.5%
24 | CCCc1nc(C)c2c(=O)[nH]c(-c3cc(S(=O)(=O)N4CCN(CC)CC4)ccc3OCC)nn12 | 7% | / | -4.3 | 3 | -6 | 3 | -0.9%
25 | Cc1ccc(S(=O)(=O)N2CCN(C(=O)c3ccc(Cl)nc3)CC2)cc1 | 9% | 8 | -2.9 | 1 | 14 | -8 | 1.1%
26 | CCOc1ccc(/C=N/Nc2nc(N3CCCC3)nc(N3CCCC3)n2)cc1OC | -9% | -16 | -1.9 | -9 | 0 | -1 | -1.6%[38.3 µM]
27 | CCc1ccc(N2CC(C)Cn3c2nc2c3c(=O)[nH]c(=O)n2C)cc1 (stereo not given) | -3% | 2 | -2.7 | -9 | 19 | 0 | 0.7%
28 | COC(=O)c1cc(S(=O)(=O)N2CCN(c3ccc(F)cc3)CC2)c[nH]1 | 18% | -3 | 3.3 | -3 | 0 | 3 | 6.2%
29 | COc1cccc(C=C2Cc3ccccc3C2=O)c1 | / | / | -2.5 | 0 | 3 | 8 | 2.8%
30 | O=c1[nH]c(-c2ccccc2O)nc2c1CCCC2 | 20% | 9 | -2.6 | -31 | -2 | -2 | 1.6%

Random excerpt: two records from the list, in no set order.
item | Structure | Sfp inh | TRPV1 potentiator | D2 ag | D2 PAM | Six1-Eya2 inh | CtBP-E1A inh | PINK1 modulator
28 | COC(=O)c1cc(S(=O)(=O)N2CCN(c3ccc(F)cc3)CC2)c[nH]1 | 18% | -3 | 3.3 | -3 | 0 | 3 | 6.2%
14 | Cc1nn(C)c(C(=O)Nc2ccn(C34CC5CC(CC(C5)C3)C4)n2)c1[N+](=O)[O-] | -10% | -11 | 0.9 | -1 | -12 | -6 | 2.1%

Full records, quoted from the list.
Listed for O=C(NCCc1ccccc1)c1ccc(NC(=O)C2CC2)cc1 = Sfp inh = /; TRPV1 potentiator = /; D2 ag = 0.9; D2 PAM = 3; Six1-Eya2 inh = 4; CtBP-E1A inh = 9; PINK1 modulator = -0.3%
Listed for Cc1csc(NC(=O)c2cnc3ccccc3n2)n1 = Sfp inh = -15%; TRPV1 potentiator = -8; D2 ag = -1.9; D2 PAM = -2; Six1-Eya2 inh = 1; CtBP-E1A inh = -8; PINK1 modulator = 1.0%
Listed for NC(=O)c1ccsc1NC(=O)CS(=O)(=O)c1ccc(F)cc1 = Sfp inh = /; TRPV1 potentiator = -7; D2 ag = -3.0; D2 PAM = -4; Six1-Eya2 inh = 4; CtBP-E1A inh = 4; PINK1 modulator = 1.1%

(continued)
item | Structure | Sfp inh | TRPV1 potentiator | D2 ag | D2 PAM | Six1-Eya2 inh | CtBP-E1A inh | PINK1 modulator
31 | Cc1cc(C)cc(OCC(=O)NNC(=O)CCC(=O)NCc2ccccc2)c1 | 27% | 24 | -1.4 | -23 | 4 | 3 | 2.4%
32 | O=C(OCc1nc2ccccc2s1)c1cccc(N2C(=O)CCC2=O)c1 | 7% | -9 | 11 | 5 | 8 | 10 | 0.0%
33 | Cc1ccc(NS(=O)(=O)c2ccc3[nH]c(=O)[nH]c3c2)c(C)c1 | 6% | 2 | 7.0 | 12 | -5 | 3 | 0.4%
34 | CCn1c(C)[n+](CCOCC[n+]2c(C)n(CC)c3cc(Cl)c(Cl)cc32)c2cc(Cl)c(Cl)cc21 | 5% | -4 | 1.0 | -7 | 2 | 1 | -4.0%[38.3 µM]
35 | COC(=O)CSc1nc(-c2ccc(F)cc2)cc(C(F)(F)F)n1 | 13% | -7 | -0.6 | -5 | 11 | 2 | -0.4%&1.7%
36 | CCSc1nc2ccccc2c(=O)n1-c1c(C)n(C)n(-c2ccccc2)c1=O | -1% | 1 | -3.7 | -2 | -10 | -12 | -0.2%
37 | CN(C)CCNC(=O)c1cccc2[nH]c(-c3ccncc3)nc12 | / | / | -0.1 | -7 | -11 | 1 | -2.6%
38 | Cc1ccc(-c2nnc(SCC(=O)N3CCCC3)o2)cc1C | -7% | -12 | -4.4 | 3 | 37 | 0 | 0.9%
39 | CCN1CCN(C(=O)CCc2nnc(CCCCc3ccccc3)o2)[C@@H](C)C1=O | 8% | 0 | -3.2 | -2 | 9 | -7 | -0.5%
40 | CC(=O)Nc1ccc(SCC(=O)Nc2ccc(Cl)cn2)cc1 | -8% | 0 | -0.2 | -17 | 0 | 1 | 4.3%
41 | CC(OC(=O)C1CC1)C(=O)Nc1cc(Cl)cc(Cl)c1 (stereo not given) | / | / | -1.5 | -6 | 7 | -2 | 10%
42 | COc1cc(NC(=S)Nc2ccc(S(=O)(=O)N3CCOCC3)cc2)cc(OC)c1OC | -27% | 11 | 3.6 | 5 | -1 | -3 | /
43 | COC(=O)C1(Cc2cc(-c3ccc([N+](=O)[O-])cc3)no2)CCN(C(=O)OC(C)(C)C)CC1 | / | -41 | 2.7 | 4 | -17 | / | 1.0%
44 | CN(Cc1ccccc1)C(=O)CCC1CCN(S(=O)(=O)N(C)C)CC1 | 13% | -12 | -1.3 | -2 | 0 | -17 | 0.2%
45 | CCc1nnc(NC(=O)C2CCCN(S(=O)(=O)c3ccccc3)C2)s1 (stereo not given) | 4% | 5 | 3.2 | -5 | -3 | 3 | /
46 | CCC(C)(c1nnnn1-c1c(C)cccc1C)N(N=O)c1cccc(C(F)(F)F)c1 (stereo not given) | 21% | 8 | -1.2 | -3 | 6 | 12 | -1.6%
47 | CCc1cccc(C)c1NC(=O)CO/N=C(\N)CC(=O)NC1CCCCC1 | 5% | 17 | -0.1 | 18 | -3 | / | 0.9%
48 | CCOc1cccc(C(=O)Nc2cc(-c3nn4c(C)nnc4s3)ccc2C)c1 | -2% | -13 | 0.7 | 1 | 7 | 3 | 3.6%
49 | CC(C)CCN1CCN(Cc2ccc3nsnc3c2)CC1CCO (stereo not given) | 6% | 4 | -5.7 | -15 | 8 | -5 | 0.8%
50 | COc1ccccc1-c1nc(C#N)c(NCc2ccc(F)cc2)o1 | -3% | -12 | -1.4 | -38 | -16 | -13 | 0.4%
